Vaccinia Venus = inhibitors of vaccinia virus (Venus reporter); Potency, µM (doses to about 36.5 µM), for inactives: at the highest dose activity change, negative = inhibition, usual class: inhibitors; 330,000 tested, 0.46% active; AID 720580; Vaccinia virus Venus reporter expression, fluorescence; active means well fitted inhibition curve with a large enough effect; inconclusive means small, poorly fitted or top-dose-only effect; inactive means no such curve, though single readings can be large or run the other way; tested in A549 cells; also: nearly all actives have a fitted effect of over 30% in size; inactives centre near -10
VACV mCherry inh = inhibitors of vaccinia virus infection (mCherry reporter signal); Potency, µM (titrated, usually from 36.5 µM), without a hit: at the top dose activity change, negative = inhibition, hits mostly inhibitors; Vaccinia virus mCherry reporter infection, fluorescence; about a quarter of the inactives have no number; 310,000 tested, 0.63% active; active = well fitted inhibition curve with a large enough effect; inconclusive = small, poorly fitted or top-dose-only effect; inactive = no such curve, though single readings can be large or run the other way; tested in A549 cells; also: nearly all actives have a fitted effect of over 35% in size; inactives centre near -10
Active calls of the source: *; i = inactive; u = inconclusive; x = not tested or not shown; & = joins results of further samples; [ ] = dose if it differs, or a comment. % is scaled to controls: 0 for no effect and ±100 for the full control effect; potency is read from the fitted curve at half-maximal effect. Compounds as they come; about 0.87% have a hit in one of these screens.

canonical_smiles,Vaccinia Venus,VACV mCherry inh
COc1ccc(NC(=O)N(C)C[C@H]2OCc3cnnn3CCCC(=O)N([C@@H](C)CO)C[C@H]2C)c(OC)c1,-6%,-12%
CCc1ccccc1NC(=O)Nc1cc(C(=O)NCc2ccc(C)cc2)ccc1N1CCCC1,u,-10%
COc1ccccc1Cn1cc(C(=O)c2ccc(C)cc2)c(=O)c2cc(C)ccc21,-10%,-24%
Cc1ccccc1C(=O)NNc1ncnc2c1cnn2-c1cccc(Cl)c1,1%,-11%
CCOc1ccc(Cn2c(=O)sc3ccccc32)cc1,-6%,-8%
COc1ccc(CCNC(=O)CCCCCN2C(=O)c3ccccc3C2=O)cc1OC,-2%,-25%
CCCCOc1ccc(C(=O)OCC(=O)NC2CCCC2)cc1,-8%,-9%
COc1cccc(-c2cnc(C(O)c3ccc(SC)cc3)[nH]2)c1 (centres undefined),-9%,17%
Cc1cc(C(=O)NNC(=O)c2ccc(Cl)cc2)no1,-12%[7.34 µM],i[7.34 µM]
CNC(=S)NCCc1ccccc1,-4%[7.34 µM],i[7.34 µM]
CC(=O)N(Cc1cc(=O)[nH]c2ccccc12)c1cccc(C)c1,-15%,x
O=C(CNCc1ccc(Cl)cc1)Nc1ccc(C(=O)N2CCCCC2)cc1,-7%,0%
CCCn1c(/C=C/c2ccccc2)nc2ccccc21,-13%&-24%,4%&-2%
O=C(CNS(=O)(=O)c1ccccc1)OCC(=O)c1ccc(F)cc1,-19%,-12%
O=C(C(=O)N1CCOCC1)c1cn(CC(=O)N2CCc3ccccc3C2)c2ccccc12,-24%,i
O=C(CCCCn1cnc2c(=S)nc[nH]c21)Nc1ccc(C(=O)O)c(O)c1,-2%,-13%
Cc1ccc(NS(=O)(=O)c2c(C(=O)N3CCCC3)c(C)n(C)c2C)cc1,-7%,-21%
CCC(C)S(=O)(=O)c1oc(-c2cccs2)nc1S(=O)(=O)c1ccccc1 (centres undefined),-8%[7.34 µM],-10%[7.34 µM]
Cc1cccc(C)c1-n1ncc(C(=O)Nc2ccc3c(c2)OCO3)c1C1CCN(C(=O)OC(C)(C)C)CC1,-7%,1%
Cc1ccc(S(=O)(=O)NCC(c2ccc(N(C)C)cc2)N2CCCC2)cc1 (centres undefined),-6%,-2%

(list continues)
canonical_smiles,Vaccinia Venus,VACV mCherry inh
O=C(Nc1nccs1)C1C2CC3OC(=O)C1C3C2 (centres undefined),-9%,x
CCNC(=O)C1(C)CCCN(C(=O)c2sccc2C)C1 (centres undefined),-19%,i
O=C(NNC(=O)c1nn(-c2ccc(F)cc2)ccc1=O)c1ccc(C(F)(F)F)cc1,-21%,-4%
Oc1[nH]c2ccc(Br)cc2c1N=Nc1ccc(C(F)(F)F)cn1,-10%,-21%
CC[C@@H](NC(=O)[C@H](Cc1ccccc1)NC(=O)CC[C@H]1O[C@@H](n2ccc(=O)[nH]c2=O)[C@H](O)[C@@H]1O)c1ccccc1,5%,7%
Cc1c(NC(=O)Cn2nc(C(F)(F)F)c3c2CCCC3)c(=O)n(-c2ccccc2)n1C,-10%,-21%
COC(=O)c1c(-c2c(Cl)cccc2Cl)noc1NC(=O)NN1CCCCC1,-6%,-5%
CCN(c1ccccc1)S(=O)(=O)c1ccc(Cl)c(NC(=O)CSc2nc(N)cc(=O)[nH]2)c1,-6%,u
CCCC[n+]1ccn(-c2nc3ccccc3nc2[N-]S(=O)(=O)c2ccc(Cl)cc2)c1,-14%,i
O=C(NC1CC1)c1cc2c(s1)-c1ccccc1OC2,u,u
COC1CC2C=C(C)C=CC=CC(=O)NC(c3ccccc3)CC=CCCC(O)CC(=O)C2=C1O (centres undefined),2.8µM*,7.1µM*
COc1ccc(NC(=O)c2sc(=O)n(Cc3ccc(S(=O)(=O)N(C)C)cc3)c2C)cc1,-7%,i
Cc1ccc(N(C(=O)c2csnn2)C(C(=O)NC2CCCCC2)c2ccncc2)cc1 (centres undefined),-13%,-16%
COc1ccc(-n2nnc(-c3nc(-c4ccccc4C)no3)c2N)cc1Cl,-11%,-1%
Cc1cc(=O)oc2cc(OCC(=O)Nc3ccc(F)cc3F)ccc12,5%,-17%
COc1ccc(CCN(Cc2nc3ccccc3c(=O)[nH]2)C(=O)C2CC2)cc1,-19%,-14%
CCOC(=O)C1CCN(C(=O)c2ccc(N(C)S(C)(=O)=O)cc2)CC1,-3%,-15%
CN(CCOc1ccccc1)CC(=O)Nc1ccc([N+](=O)[O-])cc1Cl,-1%,14%
O=C(CN1C(=O)C(=O)N(C2CCCC2)C1=O)Nc1cc(Cl)ccc1[N+](=O)[O-],-12%,i
COc1cc2c(NCCCCCO)ncnc2c(OC)c1OC,-25%,i

More structures.
canonical_smiles,Vaccinia Venus,VACV mCherry inh
Cc1[nH]c2ccc(Cl)cc2c(=O)c1CN1CCCC1,-4%,i
CS(=O)(=O)c1cccc(-c2nnc(NC(=O)c3ccc4ncsc4c3)o2)c1,-5%,-5%
COc1ccc(OC)c(CN2CCCC(n3cc(C(=O)N4CCCCC4)nn3)C2)c1 (centres undefined),-15%,-10%
O=C(C1=C[C@H](c2coc3ccccc3c2=O)C[C@H](OCCCCO)O1)N1CCN(Cc2ccc3c(c2)OCO3)CC1,-26%,-13%
COc1ccc(CC2(CO)CCN(S(=O)(=O)c3sccc3C)CC2)cc1,-20%,-26%
CCN(CCCNC(=O)c1nn(-c2ccc(C)cc2)c(=O)c2c1c1ccccc1n2C)c1ccccc1,-10%,-23%
O=C(O)C[C@]1(C(=O)Nc2ccc(F)cc2)CC(/C=C/c2ccccc2)=NO1,8%,i
Cc1nn(C)c2c1c(C(F)(F)F)cc(=O)n2C(C)C(=O)NCCc1ccccc1 (centres undefined),-7%,-16%
CCN(CC)S(=O)(=O)c1ccc(C)c(C(=O)Oc2cccc(-c3cnc4ccccc4n3)c2)c1,-12%,-3%
CCOc1ccc(S(=O)(=O)NCCC(=O)N2CCN(C(C)=O)CC2)cc1,-15%,-17%
Cc1ccc(C)c(N2CCN(C(=O)c3ccc(-c4nc(COc5ccccc5)c(C)o4)cc3)CC2)c1,-16%,-29%
Cc1ccc(-n2nc3c(c2NC(=O)c2ccco2)CS(=O)C3)c(C)c1 (centres undefined),-6%,i
COc1cc(CCC(=O)OCC(=O)Nc2ccccc2F)cc(OC)c1OC,-10%,-15%
O=C(OCC(=O)c1ccco1)c1ccc2ncsc2c1,-12%,-10%
CC(C)(C)Nc1nc(NCc2cccnc2)nc(N2CCOCC2)n1,-10%,-1%
Cc1ccc(CN2C(=O)NC(Cc3c[nH]c4ccccc34)C2=O)cc1 (centres undefined),-8%,i
CCN(Cc1cccs1)C(=O)CN1CCN(S(=O)(=O)c2ccc3c(c2)OCCCO3)CC1,-18%,-7%
COc1cccc(C(=O)Nc2ccccc2C(=O)OCc2cc(=O)n3c4c(sc3n2)CCCC4)c1,-12%,-23%
COc1cc2c3cc1Oc1c(OC)c(OC)cc4c1[C@H](Cc1ccc(cc1)Oc1cc(ccc1O)C[C@H]3N(C)CC2)N(C)CC4,u,u
Cc1oc(-c2ccccc2Cl)nc1CS(=O)(=O)CC(=O)N1CCOCC1,-17%,-2%

Going on with the list.
canonical_smiles,Vaccinia Venus,VACV mCherry inh
Cc1cc(C)n2cc(-c3ccc(Cl)cc3)c(C(=O)O)c2n1,11%,-15%
CCC(=O)N1CCc2cc(Br)cc(S(=O)(=O)Nc3ccccc3C(=O)OC)c21,-8%,-6%
COc1cccc(C(=O)NCC(=O)N2CCC3(CC2)NCCc2[nH]cnc23)c1OC,2%,-15%
CCOCCCNC(=O)C(c1ccc(Cl)cc1)N(Cc1ccc2c(c1)OCO2)C(=O)c1ccc(NC(C)=O)cc1 (centres undefined),-4%,-5%
COc1cccc(CNC(=O)Cn2cccc2C(=O)c2ccccc2C)c1,-4%,-18%
O=c1c(C(c2c(O)nc3n(c2=O)CCS3)c2cccc3ccccc23)c(O)nc2n1CCS2,-11%,-13%
O=C(Cn1c[n+](CC(=O)c2ccc([N+](=O)[O-])cc2)cn1)c1ccc([N+](=O)[O-])cc1,-11%,u
Cc1cc(NC(=O)CSc2cc(C)c3ccccc3n2)no1,-9%,-23%
O=[N+]([O-])c1ccccc1/C=C/C=N/n1c(-c2ccco2)n[nH]c1=S,-14%,-18%
O=S(=O)(c1ccc2[nH]c3c(c2c1)CCCCC3)N1CCN(c2ccccc2)CC1,0%,-4%
C[C@H](CO)N1C[C@H](C)[C@@H](CN(C)Cc2ccc3cccnc3c2)OCc2cnnn2CCCC1=O,-10%,-1%
Cc1cccc(C)c1-n1nnnc1C(c1cccc2ccccc12)N1CCC(n2c(=O)[nH]c3ccccc32)CC1 (centres undefined),-24%,-8%
CCc1ccc(NC(=O)c2ccc(OC)c([N+](=O)[O-])c2)cc1,-16%,-7%
Cc1ccc2nc(-c3c[nH]c4ccccc34)c(Nc3ccc(F)cc3)n2c1,-17%,i
Cc1ccccc1NC1=NS(=O)(=O)c2ccccc21,-7%,i
Cc1ccccc1CSc1nc2c(sc3ccccc32)c(=O)n1CCCC(=O)NCCCOC(C)C,-11%,i
C=CCn1c(SCC(=O)Nc2ccc(F)cc2)nc2cc(C(=O)O)ccc2c1=O,-15%,i
O=C1NN(c2ccccc2)C(=O)/C1=C\c1ccc(-c2cc([N+](=O)[O-])ccc2O)o1,-6%,-14%
COc1cc(CC(=O)NCC2COc3ccccc3O2)cc(OC)c1OC (centres undefined),7%,i
O=c1oc2c(CN3CCOCC3)c(O)ccc2c2c1CCCC2,-13%,-18%[1.46 µM]

Continued:
canonical_smiles,Vaccinia Venus,VACV mCherry inh
COc1cc(SC)ccc1C(=O)NCCNC(=O)c1nonc1N,-18%,6%
COc1ccc(C(=O)O/N=C(\N)c2ccccc2)c(OC)c1,-16%,2%
CCCCCCCn1c(=N)n(CC(O)c2ccco2)c2ccccc21 (centres undefined),-23%,u
CC1=C(C(=O)N2CCOCC2)CC(CC(=O)NCCCCc2ccccc2)C(=O)N1CCCN1CCCC1=O (centres undefined),-4%,-9%
COc1cc(OC)c2c(-c3cccc(-c4ccc(NC(C)=O)cc4)c3)cc(=O)oc2c1,u,u
Cc1ccc(C(=O)c2oc3ccccc3c2NC(=O)c2nc(S(C)(=O)=O)ncc2Cl)cc1F,-13%,-14%
O=C(Cc1cccc2ccccc12)Nc1ccc(OC(F)F)c(Cl)c1,-15%,-7%
CCCCN(C=O)c1c(CC)nc2ccc(C(=O)N(C)Cc3ccco3)cn12,-5%,14%
Cc1ccccc1NC(=O)n1ncc2cc(Cl)ccc21,2%,-21%
CC(=O)Nc1ccc(S(=O)(=O)N(C)CC(=O)OCC(=O)N(C)C2CCS(=O)(=O)C2)cc1 (centres undefined),-14%,-1%
O=c1[nH]c(=O)n(Cc2ccccc2)c2nc(-c3ccc(Oc4ccc(F)cc4)c([N+](=O)[O-])c3)n(CCO)c12,10µM*,-21%
Cc1cc(C)c2c(=O)n3c(nc2c1)C(CC(C)C)NC(=O)c1cccnc1-3 (centres undefined),u,-7%
Cc1ccccc1C(=O)NC(=S)NCc1cccnc1,-4%,10%
Cc1ccc(C)c(N2CCN(C(=O)c3c(C)oc4nc(C)nc(N5CCOCC5)c34)CC2)c1,-14%,-9%
O=C(O)c1ccc(N2CCCCS2(=O)=O)cc1,12%,1%
C[C@H](N)CCP(=O)(O)O,-9%,i
O=Cc1c(Sc2ccccn2)nc2ccccn2c1=O,-13%,-25%
N=c1n(Cc2ccccc2Cl)c2ccccc2n1CC(O)c1ccco1 (centres undefined),-11%,-7%
O=C(CN1C(=O)c2ccccc2C1=O)Nc1cccc([N+](=O)[O-])c1,2%,0%
CNC(=O)c1ccc(CN(C)C(=O)c2cc(C3CC3)nc3c2cnn3C(C)C)cc1,-27%,-6%

Other records follow:
canonical_smiles,Vaccinia Venus,VACV mCherry inh
COC(=O)Cc1ccc(NC(=S)N2CCN(C(=O)C3CCCO3)CC2)cc1 (centres undefined),-10%,i
N#CC1=C(N)Oc2c(ccc3cccnc23)C1c1ccncc1 (centres undefined),-28%,-16%
O=C(NCCc1ccccc1)C(=O)c1cn(CC(=O)N2CCCC2)c2ccccc12,-18%,-6%
O=C(O)C1C2CCC(C2)C1C(=O)Nc1nc2ccccc2s1 (centres undefined),-16%,-20%
CC(C)NC(=O)C1(C)CCN1C(=O)c1ccccc1Oc1ccccc1 (centres undefined),0%,-19%
CC(=O)Nc1ccc(SC[C@H](Cc2ccccc2)N2CC[C@@H](O)CCC2=O)cc1,-10%,-9%
